Screening data as filed in PubChem BioAssay.
MT1-MMP act inh = MT1-MMP (human) activation inhibition; AID 651647; P50281; GFP/RFP ratio change, % at 20 µM; HT1080 RFP-PRO-GFP cells, GFP/RFP ratio fluorescence, overnight; percent of plate control window, DMSO zero; actives 0.061% (n = 360,000);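 active = GFP/RFP ratio change of at least 30% with cell ATP level not reduced by more than half and red fluorescence within 50% of control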; note: strong numbers were not always called active
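Material: RFP-PRO-GFP reporter HT1080 cells. Dosing: single-point 20 µM compound, 1% DMSO. Controls: DMSO and RFP-L50D-GFP cell wells. Timing: cells overnight before dosing, compound overnight, 37 °C, 5% CO2. Measure: GFP/RFP fluorescence ratio.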
eIF4H inh = inhibitors of RNA binding by human eIF4H; Q15056; eIF4H fluorescence polarization binding assay; inhibition, % at 35 µM; actives 0.94% (n = 290,000); AID 2012;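 active = 50% or more with normal probe brightness, or confirmed in later tests; inconclusive = above 50% with abnormal brightness, or retests that disagree; inactive = below 50% or failed in later tests; about a fifth of its hits are not listed in these tables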;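 note: calls also rest on retests at 20 µM and on dose response follow-up; 0% = protein and probe with vehicle and 100% = probe without protein; strong numbers were not always called active; many hits fall short of the cut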
CSC inhib = blocks cancer stem cells; cancer stem cell-like cells viability, luminescence; inhibition, % at 7.5 µM; actives 1.1% (n = 300,000);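 active = mean at 75% or more and at least half the replicates too; inconclusive = mean and replicates disagree; tested in HMLE shEcad cells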;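 note: 0% = median of negative and 100% = median of positive control wells; the first replicate is given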
PABP polyA inh = PABP-poly(A) binding inhibition; P11940; PABP-poly(A) RNA binding, fluorescence polarization; actives 1% (n = 290,000); inhibition, % at 35 µM;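 active = 50% or more with normal probe brightness, or confirmed in later tests; inconclusive = above 50% with abnormal brightness, or retests that disagree; inactive = below 50% or failed in later tests; about a fifth of its hits are not listed in these tables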;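 note: calls also rest on retests at 20 µM and on dose response follow-up; controls were probe without protein and protein plus probe with vehicle; some compounds called inactive have numbers as strong as hits; many hits fall short of the cut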
Env fusion inh = blocks HIV Env-driven cell-cell fusion. HeLa-JRFL Env/CEM21 cell fusion, luciferase. inhibition, % at 12.3 µM. actives 1.1% (n = 360,000);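 active = mean replicate inhibition score of at least 50 and every replicate individually at or above 50; inconclusive = only one of the two criteria met; inactive = mean below 50 and not all replicates reaching 50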;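 note: 0% = plate neutral controls and 100% = maraviroc near 300 nM; one replicate is shown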
Yeast UUG start = yeast start codon fidelity modulation; AID 602363; actives 0.13% (n = 350,000); S. cerevisiae UUG-firefly luciferase reporter, luminescence/redox ratio; activity score, % at 18.7 µM;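 active = replicate mean at a twofold rise or more, about +100% in these data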;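 note: firefly luciferase made from a UUG start codon reports start codon fidelity; reporter light over untreated wells divided by growth signal over untreated wells; some hits fall short of that in this replicate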
Rce1 inhib = yeast Ras-converting enzyme inhibition. calls only. actives 0.27% (n = 290,000). Q03530. yeast membranes, quenched prenylated peptide cleavage fluorescence. AID 2563;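 active = fall in fluorescence gain of 50% or more versus controls, with final raw signal at or below 3038400; inconclusive = same 50% fall but final raw signal above 3038400; inactive = fall in fluorescence gain under 50%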;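 note: plate controls were neutral control wells for no effect and wells lacking membranes for full effect; tested at 10 µM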
Target sequence (Q03530 whole entry, looked up): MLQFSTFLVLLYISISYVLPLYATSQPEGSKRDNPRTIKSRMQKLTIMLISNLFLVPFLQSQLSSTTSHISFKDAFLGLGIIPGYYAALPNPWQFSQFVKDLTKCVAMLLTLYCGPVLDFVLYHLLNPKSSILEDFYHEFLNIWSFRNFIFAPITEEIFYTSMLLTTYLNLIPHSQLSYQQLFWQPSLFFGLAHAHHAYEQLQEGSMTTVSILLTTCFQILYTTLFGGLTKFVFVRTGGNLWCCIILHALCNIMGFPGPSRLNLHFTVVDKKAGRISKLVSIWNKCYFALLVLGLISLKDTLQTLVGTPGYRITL
MT1-MMP act inh RFP = further read-out of MT1-MMP act inh, marked with its call; RFP signal change, %; measured here: RFP expression control read;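 0 = vehicle wells; hits needed this value within 50% of zero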
* marks the source's active call; other numbers are inactive results; i = inactive; ? = inconclusive; . = not tested or not shown; & = joins results of further samples; [ ] = remark or other dose. An excerpt; rates above refer to the full screens.

| Structure | Env fusion inh | Rce1 inhib | eIF4H inh | CSC inhib | PABP polyA inh | Yeast UUG start | MT1-MMP act inh | MT1-MMP act inh RFP |
| --- | --- | --- | --- | --- | --- | --- | --- | --- |
| N=c1c(-c2nc3ccccc3[nH]2)cc(C(=O)c2ccco2)nn1-c1ccccc1 | -11.4 | i | 18.9 | 18.5 | 46.0 | -10.1 | 0.8 | -8.5 |
| COc1ccc(NC(=O)C2=Cc3ccccc3OC2)cc1 | -67.6 | i | -4.5 | -2.8 | -2.5 | . | 4.3 | 1.2 |
| Cc1ccccc1-c1nc(SCc2ccccn2)c2c(=O)n(C)c(=O)n(C)c2n1 | 7.9 | i | -6.9 | -3.6 | 3.1 | . | 1.2 | 0.3 |
| Cc1noc(C)c1NC(=O)N(C)C[C@H]1Oc2ccc(NC(=O)C3CC3)cc2C(=O)N([C@H](C)CO)C[C@@H]1C | 11.5[16.7 µM] | . | . | -7.2 | . | -15.9&-9.3 | -1.2 | 0.7 |
| CC(C)(C)[C@H]1COC(=O)CC/C=C\C[C@H](CC(=O)N(CCO)Cc2ccccc2)C(=O)N1 | -23.0 | . | . | -11.5 | . | -16.0 | -0.4 | 1.7 |
| Nc1cnccc1Oc1cccc(C(F)(F)F)c1 | -22.2 | i | . | -9.4 | . | . | 5.0 | -0.2 |
| COC(=O)CSc1nnc(CNc2ccc(Cl)cc2)n1-c1ccccc1 | -24.3 | i | 0.7 | -8.0 | 2.1 | -4.0 | -0.4 | 3.2 |
| Cc1ccc(NC(=O)COC(=O)c2ccc(S(=O)(=O)N3CCCC3)cc2)cc1 | -8.7 | . | . | . | . | -20.6 | -3.4 | 1.7 |
| COCCn1ccc2c(OCC(=O)Nc3cc(OC)ccc3OC)cccc2c1=O | -1.7 | i | . | -7.0 | . | . | 6.4 | -4.4 |
| O=C(NCc1cccs1)c1noc2c1CCCC2 | -38.3 | . | -12.5 | -13.3 | -1.5 | -3.6 | -11.6 | -12.6 |
| COc1ccc(C(=O)CC(=O)C(=O)Nc2ccc(C)c(C)c2)cc1 | -2.5 | i | 8.0 | -11.2 | 15.7 | -16.1 | -3.2 | -1.3 |
| C=CCN(CC=C)C(=S)Nc1ccc(OC)c(OC)c1 | 9.2 | i | -4.4 | -4.9 | -23.0 | -11.9 | -2.7 | 0.9 |
| COc1cccc(Nc2nc3cc(C)ccc3cc2C)c1 | -6.6 | . | . | . | . | -1.7 | 5.6 | 5.8 |
| COC(=O)C1=C(N)OC2=C(C(=O)CCC2)C1c1ccccc1OC (stereo unspecified) | 4.7 | i | -4.7 | -0.7 | -8.1 | . | -0.4 | -1.1 |
| CCSc1ncc(/C=N/Nc2ccccc2)n1C | . | i | -2.5 | -2.7 | -14.3 | -29.1 | 4.4 | -3.6 |
| [N-]=[N+]=NC(c1ccccc1)c1nc2ccccc2[nH]c1=O (stereo unspecified) | 5.6 | i | -0.5 | -4.0 | -1.4 | -15.7 | -0.5 | 1.2 |
| C=CCC1(CC=C)CCCN1C(=O)c1ccc2oc(CCCC)nc2c1 | 19.3 | . | . | . | . | -32.6 | -26.7 | -29.2 |
| O=C(N/N=C1\CC2CC=CC12)c1ccc(O)cc1 (stereo unspecified) | 0.8 | i | -5.3 | -12.4 | 16.8 | -6.6 | 11.8 | 3.7 |
| Cc1ccc(C)c(C(=O)COC(=O)c2nn(C)c(=O)c3ccccc23)c1 | . | . | . | 10.2 | . | -16.3 | 10.1 | -2.2 |
| CCCCN(CCCC)C(=O)CN(C)S(=O)(=O)c1ccc2c(c1)n(C)c(=O)c(=O)n2C | . | i | 2.4 | -12.7 | -4.3 | -16.9 | 0.7 | 2.5 |
| Cc1ccc(C)c2nc(SCC(=O)N3CCCc4ccccc43)c(C#N)cc12 | -20.3 | i | -3.6 | . | -4.3 | -12.3 | -9.6 | 0.3 |
| Cc1ccc(S(=O)(=O)/N=C(/Nc2nc(C)cs2)c2ccccc2)cc1 | -5.5 | . | . | -16.9 | . | -10.9 | -6.9 | 0.1 |
| CCc1nnc(NC(=O)C2=CCN(S(=O)(=O)c3ccccc3)CC2)s1 | -3.3 | i | 14.2 | -24.5 | -6.0 | . | -7.7 | -3.6 |
| COC(=O)[C@H](C)NC(=O)COc1ccccc1 | -35.9 | i | -0.3 | -16.2 | 9.2 | -8.1 | 0.2 | 2.7 |
| C=CCSc1nnc(-c2ccc(Cl)cc2Cl)o1 | -193.8 | i | -5.3 | -13.2 | -10.4 | -11.4 | . | . |
| O=C(COc1ccccc1F)NC1CC1 | . | i | 0.9 | -5.9 | -2.6 | -38.1 | 0.2 | 0.2 |
| O=C1NC(Cc2ccccc2)c2nc3ccccc3c(=O)n2-c2cc3ccccc3cc21 (stereo unspecified) | -90.7 | . | . | . | . | -12.4 | -5.4 | -10.8 |
| O=C(c1ccc2[nH]c3c(c2c1)CCCC3)N1CCN(c2ccc(F)cc2)CC1 | -44.0 | i | 8.0 | 9.9 | 4.4 | . | 7.5 | 1.1 |
| CC(C(=O)NC1CCCC1)N(Cc1ccc2c(c1)OCO2)C(=O)c1snc(C(N)=O)c1N (stereo unspecified) | -33.5 | i | 7.0 | -10.1 | -0.8 | -7.3 | 3.6 | 3.6 |
| O=C(CNC(=O)c1cccs1)c1ccc(F)cc1 | -131.6 | . | 2.2 | 8.6 | 13.7 | -46.2 | 1.9 | 2.8 |

Ordered by value in Env fusion inh (lowest first): 3 of the compounds above
Compound	Env fusion inh	Rce1 inhib	Yeast UUG start	MT1-MMP act inh	MT1-MMP act inh RFP
O=C(CNC(=O)c1cccs1)c1ccc(F)cc1	-131.6	.	-46.2	1.9	2.8
COC(=O)[C@H](C)NC(=O)COc1ccccc1	-35.9	i	-8.1	0.2	2.7
Cc1ccc(C)c2nc(SCC(=O)N3CCCc4ccccc43)c(C#N)cc12	-20.3	i	-12.3	-9.6	0.3

Next structures follow.
| Structure | Env fusion inh | Rce1 inhib | eIF4H inh | CSC inhib | PABP polyA inh | Yeast UUG start | MT1-MMP act inh | MT1-MMP act inh RFP |
| --- | --- | --- | --- | --- | --- | --- | --- | --- |
| C/C(=N/NC(=O)C(O)(c1ccccc1)c1ccccc1)c1ccc([N+](=O)[O-])o1 | 8.9 | i | 31.1 | -3.9 | -8.2 | . | -4.3 | -3.3 |
| COCc1c(C(=O)OCc2nc(N)nc(Nc3ccccc3C)n2)oc2ccccc12 | -40.8 | i | -1.4 | 1.0 | -0.5 | -28.3 | 5.7 | 3.3 |
| CC(=O)O/N=C1\C(=O)N(Cc2ccc(C)cc2)c2ccccc21 | 13.7 | . | 4.8 | . | -4.4 | . | -8.1 | -5.0 |
| Cc1ccc(-n2ncc3c2CCCC3NC(=O)c2cnccn2)cc1C (stereo unspecified) | 7.8 | i | -10.7 | 8.3 | 5.7 | -14.6 | -2.5 | -23.3 |
| COc1ccc(CCN(Cc2ccccn2)C(=S)Nc2cccc(SC)c2)cc1OC | 1.8 | i | -4.5 | 2.5 | 5.3 | -16.2 | 4.3 | 5.6 |
| Cn1cnc(S(=O)(=O)N2CCN(C(c3ccc(F)cc3)c3ccc(F)cc3)CC2)c1 | 5.9 | i | -3.0 | 2.9 | -2.3 | 3.1 | -3.9 | -4.3 |
| Clc1ccc2nncn2n1 | -10.7 | i | -4.3 | -11.6 | -8.9 | . | -0.1 | 6.0 |
| COc1ccc(C(CNC(=O)Nc2ccc(Cl)cc2)N2CCN(C)CC2)cc1 (stereo unspecified) | -0.9 | i | -5.0 | -2.3 | -7.0 | -5.9 | 0.2 | 1.2 |
| COc1cc(C(=O)Nc2scc(-c3ccccc3)c2C(=O)O)cc(OC)c1OC | 4.7 | i | 3.0 | -1.1 | 12.7 | -28.6 | -1.3 | -1.5 |
| CCc1nc2ccc(C(=O)NCCCn3ccnc3)cn2c1N(C)C(=O)C1CCCCC1 | 6.8 | . | . | . | . | -9.9 | 4.3 | 4.2 |
| CC1CCCC(NC(=O)COC(=O)CCC(=O)c2ccc(F)cc2)C1C (stereo unspecified) | -23.0 | . | . | -19.5 | . | 0.5 | -0.2 | -0.6 |
| CC1CCN(C(=O)c2ccc3c(c2)OCO3)CC1 | -11.2 | . | -8.8 | 3.9 | -21.3 | -18.6 | -0.2 | 1.4 |
| Cn1c(N)c(C(=O)COC(=O)Cc2ccc(Cl)cc2Cl)c(=O)n(C)c1=O | -129.5 | . | . | . | . | 22.8 | 2.0 | 1.5 |
| O=C(COc1cccc2ccccc12)N1c2ccccc2CCc2ccccc21 | 3.8 | i | 0.1 | 31.7 | -2.0 | . | -1.5 | -6.5 |
| Cn1cnc2cc(OC(=O)c3ccccc3)ccc21 | -20.1 | i | -10.7 | -9.2 | 1.0 | -30.4 | 2.9 | -1.4 |
| Cc1ccc(C(C)CCN2CCC(n3nccc3NC(=O)c3ccccc3)CC2)o1 (stereo unspecified) | 10.3 | i | 7.8 | 6.4 | -2.1 | 33.0 | -4.1 | -1.3 |
| Cc1cc(O)c(-c2cc(O)c(C)cc2O)cc1O | -8.9 | i | 1.1 | 43.8 | 2.6 | -20.0 | 5.8 | 2.3 |
| O=C(O)C1CC(=O)N(CCc2ccc(F)cc2)C1 (stereo unspecified) | -29.1 | i | 11.6 | -15.5 | 9.8 | -3.9 | -0.7 | 1.0 |
| CCCCNC(=S)NNC(=O)c1ccoc1C | . | i | 1.0 | -3.3 | -2.0 | -20.4 | 8.0 | 3.1 |
| CC(=O)Nc1ccccc1C(=O)C(=O)Nc1ccc(C(=O)N2CCOCC2)cc1 | -18.4 | i | -10.4 | -2.7 | ? | . | 3.7 | 5.2 |
| Cc1ccc(C(=O)Nc2nnc(S(=O)(=O)N3CCCCCC3)s2)cc1 | 2.7 | i | -12.3 | 1.0 | -5.2 | 0.5 | 10.7 | -1.9 |
| Cc1cc(C)n(CC(O)Cn2c3ccccc3c3ccccc32)c(=O)n1 (stereo unspecified) | . | i | -4.0 | . | -0.3 | -16.9 | 1.5 | 4.0 |
| CSc1cc(-c2ccco2)oc1C(=O)c1ccco1 | -6.3 | i | . | 23.3 | . | -4.1 | -3.0 | -2.1 |
| COc1cc(S(=O)(=O)N(CCc2ccccc2)Cc2cccs2)ccc1-n1cnnn1 | ? | i | -2.7 | -13.0 | 1.5 | -6.7 | 4.6 | -1.9 |
| COc1ccc(CN(CC(=O)NCc2ccccc2)C(=O)c2csnn2)cc1 | 1.1 | i | 0.9 | 10.9 | -7.2 | . | -4.3 | -2.6 |
| COc1cc(Cl)ccc1OCc1cc(C(=O)N2CCCCCCC2)no1 | -10.7 | i | -1.9 | 19.7 | 5.2 | -18.6 | 2.1 | 0.0 |
| O=C(CSc1nc2ccccc2[nH]1)N1CCN(C(=O)c2ccco2)CC1 | 8.9 | i | -3.4 | 3.4 | -12.6 | . | 2.3 | 4.6 |
| COc1cc(S(=O)(=O)N(Cc2cccc(OC)c2OC)CC2CCCO2)ccc1-n1cnnn1 (stereo unspecified) | 3.6 | i | -2.4 | -8.1 | -7.6 | 11.0 | -2.0 | -0.2 |
| Cc1ccc(C(=O)COC(=O)CNC(=O)Cc2ccccc2)cc1[N+](=O)[O-] | . | i | 4.5 | -8.4 | 5.7 | -6.0 | 6.1 | 5.7 |
| O=C(O)CSc1nnc(Cn2c(=O)sc3ccccc32)n1-c1cccc(Cl)c1 | . | i | 0.2 | -4.0 | 2.5 | -11.3 | 0.4 | 5.5 |
| O=S(=O)(Nc1ccc2cn[nH]c2c1)c1ccc(Cl)s1 | 14.4 | i | 0.3 | 4.1 | 7.9 | . | -1.5 | 0.4 |

A few values from above:
COc1ccc(CN(CC(=O)NCc2ccccc2)C(=O)c2csnn2)cc1 in PABP polyA inh shows -7.2
COc1cc(S(=O)(=O)N(Cc2cccc(OC)c2OC)CC2CCCO2)ccc1-n1cnnn1 (stereo unspecified) in PABP polyA inh shows -7.6
